High-throughput results from PubChem BioAssay.
FGF22 binding = binders of human FGF22 protein, primary screen, FGF22 synaptogenesis inhibitor project, biophysical, thermal shift, single point; Fibroblast growth factor 22 (Homo sapiens), Q9HCT0; recombinant FGF22 thermal shift, SYPRO orange fluorescence; percent of sucrose octasulfate shift, DMSO zero; calls only at 9.99 µM; 340,000 tested, 1.5% active;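 active = melting point raised past a set limit in the mean and every replicate; three in four hits are not shown here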
Target sequence (Q9HCT0 whole entry, looked up): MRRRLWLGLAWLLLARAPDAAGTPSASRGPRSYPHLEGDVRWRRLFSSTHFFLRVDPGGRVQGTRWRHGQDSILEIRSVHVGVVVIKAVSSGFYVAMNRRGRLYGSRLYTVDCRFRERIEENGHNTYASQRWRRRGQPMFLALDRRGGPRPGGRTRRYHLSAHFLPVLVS
Ecoli rRNA inh = reduced GFP signal of wild-type E. coli, primary screen, bacterial rRNA inhibitor project, GFP/RFP fluorescence, OD600, single point; 350,000 tested, 1.6% active; GFP signal change (wild-type ribosome), % (no concentration beside the values); E. coli WT GFP vs humanized-ribosome RFP mutants, 24 h; active compounds read low; DMSO median 0, no signal -100;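 active = significant combined selectivity score with lowered wild-type GFP, culture density cut under 30%, mutant RFP and density less affected; inactive = any of these conditions unmet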; also: one replicate is shown; some compounds called inactive have numbers as strong as hits
AF4-AF9 inh = inhibitors of AF4 peptide binding to AF9, primary screen, biochemical, AlphaScreen, biotin-AF4 peptide, FLAG-AF9, single point; inhibition, % at 10 µM; 350,000 tested, 0.47% active; Protein AF-9 (Homo sapiens), P42568; AID 651704, 2012;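 active = every replicate reaching a set inhibition limit, whatever the replicate mean, cut at about 25% in these data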;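 also: 0% = plate neutral control median and 100% = total signal loss; the record names both 10 and 1 µM as test concentration; the first replicate is given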
Target sequence (P42568 whole entry, looked up): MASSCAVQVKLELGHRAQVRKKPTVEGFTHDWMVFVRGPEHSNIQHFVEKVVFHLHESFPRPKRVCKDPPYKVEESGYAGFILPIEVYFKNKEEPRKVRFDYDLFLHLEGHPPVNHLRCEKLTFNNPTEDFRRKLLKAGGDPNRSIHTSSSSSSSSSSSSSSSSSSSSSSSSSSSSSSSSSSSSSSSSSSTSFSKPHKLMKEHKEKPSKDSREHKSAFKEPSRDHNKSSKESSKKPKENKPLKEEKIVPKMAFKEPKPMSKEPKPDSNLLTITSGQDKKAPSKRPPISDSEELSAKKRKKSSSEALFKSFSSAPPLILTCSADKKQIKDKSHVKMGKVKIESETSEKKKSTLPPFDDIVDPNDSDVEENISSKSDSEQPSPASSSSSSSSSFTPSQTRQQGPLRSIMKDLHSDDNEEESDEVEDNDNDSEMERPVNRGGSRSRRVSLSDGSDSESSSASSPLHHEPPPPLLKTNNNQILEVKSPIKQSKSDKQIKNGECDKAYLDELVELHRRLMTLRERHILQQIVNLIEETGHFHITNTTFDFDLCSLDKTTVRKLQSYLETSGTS
Ecoli rRNA inh OD600 = further read-out of Ecoli rRNA inh, marked with its call; OD600 change, %; measured here: OD600 growth;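 optical density of the mix in the first replicate; 0 = DMSO median and -100 = no signal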
Ecoli rRNA inh RFP = further read-out of Ecoli rRNA inh, marked with its call; RFP signal change, %; measured here: RFP humanized mutant strains;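 first replicate; 0 = DMSO median and -100 = no signal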
Active calls of the source: *; i = inactive; · = no result given; + = active, no number; & = joins results of further samples. A portion of the library, so the mix of outcomes need not match the whole.

Short forms: A = FGF22 binding; B = Ecoli rRNA inh; C = Ecoli rRNA inh OD600; D = Ecoli rRNA inh RFP; E = AF4-AF9 inh
1) C[C@H](CO)N1C[C@H](C)[C@@H](CN(C)S(=O)(=O)c2ccc(F)cc2)Oc2ccc(N(C)C)cc2C1=O
  A: i	B: 0	C: 2	D: -1.0	E: -2.5

2) C[C@H]1CN([C@@H](C)CO)C(=O)c2cc(C#CCc3ccccc3)cnc2O[C@@H]1CN(C)Cc1ccccc1
  A: i	B: 3	C: -22	D: 22	E: 6.8

3) COc1ccc2c3c(n(C)c2c1)[C@@H](CO)NCC31CN(Cc2cc(F)ccc2F)C1
  A: i	B: -1	C: 15	D: -0.8	E: 24

4) C[C@H]1CN([C@@H](C)CO)C(=O)Cc2cc(N(C)C)ccc2O[C@@H]1CN(C)Cc1ccncc1
  A: i	B: 1	C: 5	D: -3.0	E: 2.8

5) O=C(C[C@H]1C[C@@H]2c3cc(NC(=O)c4ccc5c(c4)OCO5)ccc3O[C@@H]2[C@H](CO)O1)NCc1ccc(Oc2ccccc2)cc1
  A: i	B: -7	C: -14	D: 3.2	E: 0.9

6) COc1cccc(-c2ccc3n(c2=O)C[C@@H]2[C@@H](CO)[C@H](C(=O)N(C)C)[C@H]3N2C(=O)c2ccccn2)c1
  A: i	B: 1	C: 3	D: -0.8	E: 1.8

7) C[C@H]1CN([C@@H](C)CO)C(=O)c2cc(NS(=O)(=O)c3cccs3)ccc2O[C@H]1CN(C)Cc1ccccc1
  A: i	B: 2	C: -3	D: 2.0	E: -0.6

8) COCCN1C(=O)CSCC1(C)C(=O)NCc1ccccc1 (centres undefined)
  A: i	B: 5	C: 11	D: -4.3	E: -1.8

9) C[C@H]1CN([C@@H](C)CO)S(=O)(=O)c2ccc(C#Cc3cccc(F)c3)cc2O[C@H]1CN(C)S(=O)(=O)c1ccccc1F
  A: i	B: 3	C: 7	D: -0.4	E: -2.9

10) CCOC(=O)CCCCCC(=O)Nc1ccc2c(c1)C(=O)N([C@@H](C)CO)C[C@@H](C)[C@H](CN(C)C(=O)Nc1ccccc1)OCCCC[C@H](C)O2
  A: ·	B: 9&2	C: 7&-8	D: 3.4&-1.6	E: -3.1

11) COc1ccc(S(=O)(=O)N(C)C[C@@H]2Oc3c(NC(=O)c4cc(C)nn4C)cccc3C(=O)N([C@H](C)CO)C[C@H]2C)cc1
  A: +	B: 1	C: 4	D: -1.1	E: -15

12) CN1CCN(C(=O)C[C@@H]2CC[C@H]3[C@@H](COC[C@@H](O)CN3C(=O)Nc3ccc(Cl)cc3)O2)CC1
  A: i	B: -24	C: -28	D: -2.1	E: -3.6

13) CCCN1C[C@H](C)[C@@H](OC)CN(C)C(=O)c2cc(NC(=O)CC(F)(F)F)ccc2OC[C@@H]1C
  A: i	B: 3	C: -2	D: 1.3	E: -1.7

14) O=C(CCN1CCCCC1)N[C@@H]1CC[C@H](CCNS(=O)(=O)c2ccccc2)O[C@H]1CO
  A: i	B: 2	C: 3	D: -2.0	E: 1.9

15) CO[C@H]1CN(C)C(=O)c2cc(NS(=O)(=O)c3cn(C)cn3)ccc2OC[C@@H](C)N(CCC(F)(F)F)C[C@H]1C
  A: i	B: 2	C: 3	D: -2.6	E: 0.7

16) COc1cccc(CNC(=O)C[C@H]2CC[C@@H](NC(=O)C3CCC3)[C@@H](CO)O2)c1
  A: i	B: 2	C: 1	D: 1.0	E: 3.9

17) CCCCC[C@@H]1CCCCC[C@H](O)C[C@@H](O)[C@@H](O)/C=C/C(=O)O1
  A: i	B: -27	C: -41	D: -12	E: -1.8

18) C[C@H]1CN([C@@H](C)CO)S(=O)(=O)c2ccc(-c3cccnc3)cc2O[C@@H]1CN(C)C(=O)CC1CC1
  A: i	B: -3	C: 0	D: -0.8	E: 4.5

19) Cc1ccc(S(=O)(=O)N[C@H]2CC[C@@H](CC(=O)O)O[C@@H]2CO)cc1
  A: i	B: 0	C: -5	D: -1.6	E: -4.6

20) CCCC(=O)N1CCC2(CC1)CN(C(=O)c1ccc(F)cc1)[C@@H](CO)c1[nH]c3cc(OC)ccc3c12
  A: i	B: -1	C: -11	D: -0.6	E: 0.1

21) O=C(CN1CCOCC1)N[C@@H]1CC[C@H](CCn2cc(C3CC3)nn2)O[C@@H]1CO
  A: i	B: 5	C: 20	D: -1.6	E: -0.9

22) CC(C)NC(=O)N1[C@@H]2CNc3ccccc3[C@@H]2[C@@H]1CO
  A: i	B: 6	C: 1	D: 0.9	E: 1.8

23) O=C(C[C@H]1C[C@@H]2c3cc(NC(=O)NC4CCCC4)ccc3O[C@@H]2[C@@H](CO)O1)NCc1ccccn1
  A: i	B: 2	C: 7	D: -1.7	E: -6.5

24) COCCNC(=O)C[C@@H]1CC[C@H]2[C@@H](COC[C@@H](O)CN2S(=O)(=O)c2ccccc2F)O1
  A: i	B: 4	C: 21	D: -6.0	E: -0.9

25) C[C@@H]1CN([C@@H](C)CO)C(=O)Cc2cc(NC(=O)Nc3cccc4ccccc34)ccc2O[C@@H]1CN(C)C(=O)Nc1ccc2c(c1)OCO2
  A: i	B: -1	C: 7	D: 2.3	E: 0.8

26) CN(C)S(=O)(=O)c1cccc(NC(=O)c2ccccc2SCC(=O)N2CCCC2)c1
  A: i	B: 3	C: 14	D: -0.5	E: -0.9

27) CCCCC(=O)N(C)c1c(CC)nc2c(OCc3ccc(Cl)cc3Cl)cccn12
  A: i	B: -9	C: -17	D: 18	E: 2.7

28) COC[C@@H]1CCCN1[C@H]1CS(=O)(=O)N[C@@H]1COCc1ccccc1
  A: i	B: -4	C: 6	D: 3.0	E: 2.6

29) CN1OC[C@@H]2CN(S(=O)(=O)c3ccccc3)[C@H](c3ccc(N4CCCCC4)cc3)C[C@@H]21
  A: i	B: -8	C: -2	D: 16	E: 5.0

30) CN(Cc1ccc(Cl)c(Cl)c1)C(c1cc2ccccc2o1)c1nnnn1C(C)(C)C (centres undefined)
  A: i	B: 24	C: 24	D: 0.8	E: -1.9

Quoted from above: nos. 21 to 30
Short forms: A = FGF22 binding; B = Ecoli rRNA inh; C = Ecoli rRNA inh OD600; D = Ecoli rRNA inh RFP; E = AF4-AF9 inh
21) O=C(CN1CCOCC1)N[C@@H]1CC[C@H](CCn2cc(C3CC3)nn2)O[C@@H]1CO
  A: i	B: 5	C: 20	D: -1.6	E: -0.9

22) CC(C)NC(=O)N1[C@@H]2CNc3ccccc3[C@@H]2[C@@H]1CO
  A: i	B: 6	C: 1	D: 0.9	E: 1.8

23) O=C(C[C@H]1C[C@@H]2c3cc(NC(=O)NC4CCCC4)ccc3O[C@@H]2[C@@H](CO)O1)NCc1ccccn1
  A: i	B: 2	C: 7	D: -1.7	E: -6.5

24) COCCNC(=O)C[C@@H]1CC[C@H]2[C@@H](COC[C@@H](O)CN2S(=O)(=O)c2ccccc2F)O1
  A: i	B: 4	C: 21	D: -6.0	E: -0.9

25) C[C@@H]1CN([C@@H](C)CO)C(=O)Cc2cc(NC(=O)Nc3cccc4ccccc34)ccc2O[C@@H]1CN(C)C(=O)Nc1ccc2c(c1)OCO2
  A: i	B: -1	C: 7	D: 2.3	E: 0.8

26) CN(C)S(=O)(=O)c1cccc(NC(=O)c2ccccc2SCC(=O)N2CCCC2)c1
  A: i	B: 3	C: 14	D: -0.5	E: -0.9

27) CCCCC(=O)N(C)c1c(CC)nc2c(OCc3ccc(Cl)cc3Cl)cccn12
  A: i	B: -9	C: -17	D: 18	E: 2.7

28) COC[C@@H]1CCCN1[C@H]1CS(=O)(=O)N[C@@H]1COCc1ccccc1
  A: i	B: -4	C: 6	D: 3.0	E: 2.6

29) CN1OC[C@@H]2CN(S(=O)(=O)c3ccccc3)[C@H](c3ccc(N4CCCCC4)cc3)C[C@@H]21
  A: i	B: -8	C: -2	D: 16	E: 5.0

30) CN(Cc1ccc(Cl)c(Cl)c1)C(c1cc2ccccc2o1)c1nnnn1C(C)(C)C (centres undefined)
  A: i	B: 24	C: 24	D: 0.8	E: -1.9

Later entries:
Short forms: A = FGF22 binding; B = Ecoli rRNA inh; C = Ecoli rRNA inh OD600; D = Ecoli rRNA inh RFP; E = AF4-AF9 inh
31) Cc1ccc(NC(=O)C[C@H]2CC[C@H]3[C@@H](COc4ccc(NC(=O)C5CCC5)cc4C(=O)N3C)O2)cc1
  A: i	B: -7	C: -17	D: -2.0	E: 0.6

32) CCC(=O)N(C)C[C@@H]1Oc2cc(-c3ccccc3C)ccc2S(=O)(=O)N([C@H](C)CO)C[C@H]1C
  A: i	B: -2	C: -16	D: 2.1	E: -1.6

33) Cc1ccc(S(=O)(=O)Nc2cccc3c2O[C@H](CN(C)C(=O)NC2CCCCC2)[C@@H](C)CN([C@H](C)CO)C3=O)cc1
  A: i	B: 0	C: 1	D: -2.7	E: -4.6

34) CCCCCCNC(=O)O[C@H]1CN(C(=O)OC(C)C)N(C(=O)OC(C)C)[C@@H]2CN(S(=O)(=O)c3ccc(C)cc3)C[C@]12O
  A: i	B: -7	C: 8	D: -0.2	E: -2.9

35) C[C@H]1CN([C@@H](C)CO)C(=O)c2cc(NS(=O)(=O)c3cccs3)ccc2O[C@@H]1CN(C)C(=O)Nc1ccccc1
  A: i	B: -3	C: 3	D: 0.0	E: 2.0

36) N#C[C@@H]1[C@H](c2ccc(C#Cc3ccccc3F)cc2)[C@H](CO)N1C(=O)C1CC1
  A: i	B: -47	C: -72	D: -3.9	E: -0.9

37) CCS(=O)(=O)NCC[C@H]1CC[C@H](NS(=O)(=O)c2cccc(F)c2)[C@H](CO)O1
  A: i	B: -1	C: 11	D: -1.2	E: -0.9

38) C[C@@H]1CN([C@H](C)CO)C(=O)Cc2cc(NC(=O)CCC(F)(F)F)ccc2O[C@H]1CN(C)C
  A: i	B: 2	C: 0	D: -1.1	E: -0.1

39) COc1ccc(-c2cc(C(=O)NCc3ccc(F)cc3)[nH]n2)c(C)c1
  A: i	B: 3	C: -9	D: 3.4	E: -4.2

40) C[C@@H]1COc2cccc(N3CCN(Cc4ccccc4F)CC3)c2S(=O)(=O)N1
  A: i	B: 14	C: 6	D: 4.8	E: 2.1

41) CC(C)NC(=O)N(C)C[C@H]1Oc2cc(C#CC(C)(C)O)ccc2S(=O)(=O)N([C@@H](C)CO)C[C@H]1C
  A: i	B: -1	C: 3	D: -0.6	E: -4.7

42) C[C@H]1CN([C@@H](C)CO)C(=O)c2cc(/C=C/c3ccccc3)cnc2O[C@H]1CN(C)C(=O)CN(C)C
  A: i	B: 4	C: 7	D: -2.0	E: 3.2

43) CCCCC(=O)N(C)c1c(C)nc2ccc(C(=O)NCCN(C)C)cn12
  A: i	B: 17	C: 28	D: 2.1	E: -1.5

44) C[C@H]1CN([C@@H](C)CO)C(=O)Cc2cc(NC(=O)Cn3cnnn3)ccc2O[C@H]1CN(C)Cc1ccc(Oc2ccccc2)cc1
  A: i	B: -3	C: -9	D: 3.7	E: 4.4

45) C[C@H](CO)N1C[C@H](C)[C@@H](CN(C)S(=O)(=O)c2cn(C)cn2)OCCCC[C@H](C)Oc2ccc(N(C)C)cc2C1=O
  A: i	B: 4	C: 7	D: 1.9	E: 6.0

46) CCc1noc(C)c1C(=O)N1CCN(c2cccc(Cl)c2)CC1
  A: i	B: -1	C: -9	D: -2.3	E: -0.4

47) CC(C)C[C@H](NC(=O)/C=C/[C@H]1O[C@@H](n2ccc(=O)[nH]c2=O)[C@H](O)[C@@H]1O)C(=O)O
  A: i	B: 31	C: 24	D: 1.9	E: -0.5

48) CC(C)n1nnnc1C1c2ccccc2C(=O)N1Cc1ccco1 (centres undefined)
  A: i	B: 3	C: 13	D: -2.3	E: -1.2

49) C/C=C/c1ccc([C@@H]2[C@@H](CO)N(Cc3cccc(F)c3)C23CN(C(C)=O)C3)cc1
  A: i	B: 0	C: 1	D: 4.1	E: 2.4

50) C[C@@H]1CCCCO[C@@H](CN(C)C(=O)Nc2ccccc2)[C@@H](C)CN([C@@H](C)CO)C(=O)c2cc(NC(=O)Nc3ccc4c(c3)OCO4)ccc2O1
  A: i	B: 2	C: -2	D: 0.0	E: 4.1

51) O=C(C[C@@H]1CC[C@H](NC(=O)C2CC2)[C@@H](CO)O1)NCC1CC1
  A: i	B: 3	C: -2	D: -2.4	E: -3.3

52) CCCNC(=O)N[C@@H]1CC[C@H](CC(=O)N2CCN(C)CC2)O[C@H]1CO
  A: i	B: 2	C: 8	D: 1.2	E: 1.8

53) C[C@@H]1CN([C@H](C)CO)C(=O)c2cc(NS(=O)(=O)c3cn(C)cn3)ccc2O[C@H]1CN(C)Cc1ccc(Cl)c(Cl)c1
  A: i	B: -1	C: -5	D: 0.0	E: -2.0

54) C[C@H](CO)N1C[C@H](C)[C@@H](CN(C)C(=O)Nc2ccccc2)Oc2ncc(C#CC3CC3)cc2C1=O
  A: i	B: 3	C: 6	D: -1.3	E: 0.2

55) CC=Cc1ccc2n(c1=O)C[C@@H]1[C@@H](CO)[C@H](C(=O)N3CCC(Cc4ccccc4)CC3)N(C)[C@H]21 (mixture of isomers)
  A: i	B: -9	C: -21	D: -0.1	E: 3.6

56) Cc1noc(C)c1NC(=O)Nc1ccc2c(c1)C(=O)N(C)[C@H]1CC[C@H](CC(=O)NCc3ccc(Cl)cc3)O[C@H]1CO2
  A: i	B: -3	C: -8	D: -0.9	E: 2.2
